High-throughput results deposited in PubChem BioAssay by several laboratories.
YopH inh: YopH tyrosine phosphatase inhibitors, primary screen, biochemical, fluorescence Ex485/Em525; inhibition, %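 (about 10 µM by stock and volumes)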; 140,000 compounds, 0.16% hits; AID 898, 2007;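 active = inhibition of 50% or more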;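 note: controls were vehicle for no effect and minimum signal wells for full effect; inactives centre near -20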
RecA splice inh: Mtb RecA intein splicing inhibitors, primary screen, biochemical, fluorescence, HTS. cell-free RecA intein splicing. 290,000 compounds, 0.75% hits. AID 2221, 2009. inhibition, %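 (about 9 µM by stock and volumes)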; in the data active = inhibition above about 30%; inconclusive = no clear call, values can overlap the other calls;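 note: 0% = vehicle wells and 100% = reference inhibitor control wells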
Target sequence (P9WHJ3 whole entry, looked up, canonical isoform): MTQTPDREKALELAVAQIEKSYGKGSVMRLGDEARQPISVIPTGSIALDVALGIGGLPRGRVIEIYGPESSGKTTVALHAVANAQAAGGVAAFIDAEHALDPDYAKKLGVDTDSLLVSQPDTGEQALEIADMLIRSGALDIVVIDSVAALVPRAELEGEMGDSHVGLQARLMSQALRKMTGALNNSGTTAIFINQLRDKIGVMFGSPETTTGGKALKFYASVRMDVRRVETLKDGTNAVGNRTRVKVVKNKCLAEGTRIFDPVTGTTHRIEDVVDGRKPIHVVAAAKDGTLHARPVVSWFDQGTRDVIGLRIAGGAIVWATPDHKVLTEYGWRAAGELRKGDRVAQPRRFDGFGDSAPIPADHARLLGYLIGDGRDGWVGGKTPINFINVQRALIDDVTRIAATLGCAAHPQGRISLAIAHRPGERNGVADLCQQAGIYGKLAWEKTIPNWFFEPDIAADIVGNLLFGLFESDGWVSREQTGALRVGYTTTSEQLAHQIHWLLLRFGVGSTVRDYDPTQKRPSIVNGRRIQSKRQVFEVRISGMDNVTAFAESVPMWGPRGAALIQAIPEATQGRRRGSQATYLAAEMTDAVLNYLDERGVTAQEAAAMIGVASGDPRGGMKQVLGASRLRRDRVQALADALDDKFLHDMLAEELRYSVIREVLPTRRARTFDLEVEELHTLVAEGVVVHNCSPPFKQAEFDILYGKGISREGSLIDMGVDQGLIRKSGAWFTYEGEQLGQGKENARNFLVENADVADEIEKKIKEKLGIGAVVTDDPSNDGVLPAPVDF
Arbovirus anti: antivirals against arbovirus infection, primary screen, cell-based, full library, 10K replicate subset | arbovirus infection cell-based antiviral screen | 200,000 compounds, 0.37% hits | inhibition, % at 10 µM;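 active = inhibition from about 30%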;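 note: bluetongue infection of BSR cells; cell survival read as ATP light after 72 h; 0% = infected wells without compound and 100% = uninfected wells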
Mtb bLac sens: beta-lactam sensitization of Mtb H37Rv, H37Rv; AID 434955, 2010; 330,000 compounds, 0.27% hits; inhibition, % at 25 µM; M. tuberculosis H37Rv growth with meropenem, percent inhibition; hits of this screen are not shown here;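 active = about 74% or more and at least 40 points above the plate without the antibiotic, then above 30% in a dose series; inconclusive = first-round hits that could not be retested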;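 note: growth measured after seven days incubation then overnight dye step; 0% = bacteria only wells and 100% = bacteria with antibiotic; twin plates without the antibiotic show which effects depend on it; some results filed as inactive read as strong as hits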
Mtb growth: M. tuberculosis H37Rv growth inhibitors, H37Rv strain (AID 1626); inhibition, % at 10 µM, or IC50 in µM where a hit was titrated; 220,000 compounds, 0.95% hits; M. tuberculosis H37Rv growth inhibition; higher % means a stronger effect;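 active = confirmed in a dose series; inconclusive = inhibition above 80% but not taken into the dose series; inactive = below 80% or under 30% at every dose of the series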;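 note: bacteria incubated seven days before Alamar blue readout; 0% = bacteria only wells and 100% = bacteria with antibiotic wells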
Arbovirus anti repeat: further read-out of Arbovirus anti, marked with its call; inhibition, %; measured here: 10K subset replicate screen; many hits read low in the repeat;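 first of two repeat runs on a subset; 0% = infected and 100% = uninfected wells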
The depositor's hits bear a star; ? = inconclusive; nt = not tested or not shown. Only part of the results is shown, so the mix of outcomes need not match the whole.

SMILES	YopH inh	RecA splice inh	Arbovirus anti	Mtb bLac sens	Mtb growth	others
COCCn1c(C)cc(C(=O)COC(=O)CCc2ccc(S(=O)(=O)N3CCOCC3)cc2)c1C	-32	0.8	4	-1	-6%
CC(=O)COC(=O)c1cccc(N2C(=O)C3C4C=CC(C4)C3C2=O)c1 (stereo not drawn)	0	1.8	5	-3	5%	Arbovirus anti repeat=2
COC(=O)c1scc(C)c1NC(=O)Cc1ccccc1	-15	-0.8	-1	-9	-6%
CC(NC(=O)c1ccc2c(c1)OCCO2)c1ccc(S(N)(=O)=O)cc1 (stereo not drawn)	nt	-4.4	-1	-6	7%
Cc1cccc(Cc2cnc(NC(=O)c3ccc(C)o3)s2)c1	-15	8.7	-29	6	22%
CC(C)[C@@]1(NC(=O)[C@@H]2C[C@@H]3c4cccc5[nH]cc(c45)C[C@H]3N(C)C2)O[C@@]2(O)[C@@H]3CCCN3C(=O)[C@H](Cc3ccccc3)N2C1=O	-21	7.6	-24	8	9%
N#CCSc1ncnc2ccccc12	nt	6.2	5	1	-7%
Clc1ccc2ncc(-c3nnnn3-c3ccccc3)c(-c3ccccc3)c2c1	-19	4.7	-13	1	8%
CCOCc1nnc(NC(=O)c2ccc(NC(C)=O)cc2)s1	nt	13	15	2	-3%
C[C@H](NC(=O)C(c1ccccc1)c1ccccc1)c1ccccc1	nt	4.4	nt	0	nt
COc1cccc(CSc2nnc(C(F)(F)F)n2Cc2ccc(F)cc2)c1	-44	7.9	-14	3	4%
O=C(CN1C(=O)NC2(CCCC2)C1=O)Nc1cc(Cl)ccc1N1CCCC1	nt	-2.3	nt	?	nt
CCOC(=O)C1CCCN(CC(O)COCc2ccc3c(c2)OCO3)C1 (stereo not drawn)	nt	-2.0	-1	-6	0%
O=C1c2ccccc2C(=O)N1CCc1c[nH]c2ccc(O)cc12	nt	-2.5	9	7	-1%
COc1ccc(C2Nc3ccccc3C(=O)N2Cc2ccco2)cc1COc1ccc(F)cc1 (stereo not drawn)	-25	22	-11	-3	4%
CC(C)C(CC(=O)NCc1ccco1)c1ccco1 (stereo not drawn)	-16	5.1	8	0	-1%
COc1ccccc1NC(=O)CSc1nnc(C2CCCCC2)o1	-36	2.6	5	-8	-10%
CCOc1ccc(CC(=O)NCC2(N3CCCCC3)CCCCC2)cc1	nt	0.9	-1	-11	9%
COc1cc2c(cc1OC)CN(C(=O)Cn1ccccc1=O)CC2	nt	4.0	nt	-2	nt
CN(CCOC(=O)c1ccccc1)Cc1ccccc1	-21	-3.2	0	-1	3%
Cc1nc2cc3ccccc3cc2c(=O)[nH]1	-8	-0.1	-6	1	-4%
CCN(Cc1ccccc1)c1ccc(/C=N/NC(=O)c2cccc(S(=O)(=O)N3CCOCC3)c2)cc1	4	-457	-4	5	16%
O=C(Nc1ccc(S(=O)(=O)Nc2nccs2)cc1)c1cccc(F)c1	nt	-0.1	nt	3	nt
NC(=O)c1ccc[n+](CC(=O)c2cccc([N+](=O)[O-])c2)c1	nt	-0.4	nt	5	nt
COc1ccc(OCC(=O)Nc2ccncc2)cc1	nt	0.0	nt	2	-11%
COc1ccc(-c2noc(CSc3nc4sc(C)c(C)c4c(=O)n3-c3ccccc3)n2)cc1OC	-42	2.3	-10	2	4%
Cc1ccc(NC(=O)C2C3C=CC4(CN(Cc5cccnc5)C(=O)C24)O3)cc1F (stereo not drawn)	-18	0.3	7	-2	5%	Arbovirus anti repeat=0
CCCc1cc2c(cc1NC(=O)c1ccccc1Cl)OCO2	-27	-1.2	-3	100	76%
CNc1nnc(CSc2nc3ccccc3s2)s1	-24	0.7	0	-11	3%
Cc1ccc(OCC(O)Cn2c(N)nc3c2c(=O)n(C)c(=O)n3C)cc1 (stereo not drawn)	nt	-1.6	7	-5	-5%

The closing 7 entries of the part before lead into the next:
SMILES	YopH inh	RecA splice inh	Arbovirus anti	Mtb bLac sens	Mtb growth	others
NC(=O)c1ccc[n+](CC(=O)c2cccc([N+](=O)[O-])c2)c1	nt	-0.4	nt	5	nt
COc1ccc(OCC(=O)Nc2ccncc2)cc1	nt	0.0	nt	2	-11%
COc1ccc(-c2noc(CSc3nc4sc(C)c(C)c4c(=O)n3-c3ccccc3)n2)cc1OC	-42	2.3	-10	2	4%
Cc1ccc(NC(=O)C2C3C=CC4(CN(Cc5cccnc5)C(=O)C24)O3)cc1F (stereo not drawn)	-18	0.3	7	-2	5%	Arbovirus anti repeat=0
CCCc1cc2c(cc1NC(=O)c1ccccc1Cl)OCO2	-27	-1.2	-3	100	76%
CNc1nnc(CSc2nc3ccccc3s2)s1	-24	0.7	0	-11	3%
Cc1ccc(OCC(O)Cn2c(N)nc3c2c(=O)n(C)c(=O)n3C)cc1 (stereo not drawn)	nt	-1.6	7	-5	-5%
CCCNC(=O)CN(C1CCCCC1)S(C)(=O)=O	2	2.9	5	-8	-13%
COc1ccc(NC(=O)c2cc(S(=O)(=O)N3CCOCC3)cn2C)cc1Cl	nt	0.2	nt	5	nt
CC1CCc2c(sc3ncnc(N4CCOCC4)c23)C1 (stereo not drawn)	-6	0.9	5	?	-6%
Cc1ccc2nc(N3CCN(C(=O)CCC(=O)O)CC3)nc(-c3ccccc3)c2c1	nt	-122	nt	-1	nt
O=C(O)CC1(CC(=O)NCc2ccccn2)CCCCC1	nt	-3.2	nt	-5	2%
CN(C)CCNC(=O)c1onc(CSc2ccncc2)c1C(=O)NCCN(C)C	nt	0.8	nt	-5	-10%
O=C(Nc1ccccc1C(F)(F)F)NC1CCCCCCC1	-19	0.1	7	-6	-3%
O=C(N/N=C/c1ccc(N2CCCC2)c([N+](=O)[O-])c1)c1cccnc1	nt	-1.7	0	8	1%
O=C(Cn1nnc(-c2cccs2)n1)NCc1ccccc1	nt	1.4	-2	6	8%
CCN(CC)S(=O)(=O)c1ccc(C(=O)Nc2nnc(-c3ccco3)o2)cc1	nt	1.2	2	93	?
COc1ccc(COC[C@H](C)[C@H](O)[C@@H](C)[C@H]2OC(=O)[C@@H]2C)cc1	nt	-1.1	nt	-12	-6%
COc1ccc(O)c(C2NC(CC(C)C)(C(=O)O)C3C(=O)N(Cc4ccccc4)C(=O)C23)c1 (stereo not drawn)	-28	-5.3	4	-17	-4%
CCCCOC(=O)N1CCOCCOCCOCCOCC1	nt	0.2	nt	-3	1%
O=C(Nc1cccc(C(F)(F)F)c1)c1cccnc1	-15	-2.3	-3	-6	-6%
O=C(c1ccco1)N1CCN(C(=O)c2ccc(CS(=O)c3ccc(Cl)cc3)o2)CC1 (stereo not drawn)	nt	1.1	nt	-9	nt
CCN(CC)C(=O)c1cc2sc3ccccc3c2s1	-37	2.7	-7	68	6%	Arbovirus anti repeat=3
O=c1/c(=C\c2ccc(O)cc2)sc2n1C(c1ccccc1)C(c1ccccc1)=NN=2 (stereo not drawn)	-28	13	-22	100	48%
COc1ccc(Nc2cc(=O)oc3ccccc23)cc1	-16	-2.2	-2	-9	-9%
CC(NCC(O)c1ccc([N+](=O)[O-])cc1)C12CC3CC(CC(C3)C1)C2 (stereo not drawn)	nt	0.0	nt	-4	9%
CCOC(=O)c1ccc(-n2c(N)c(C(=O)NCc3ccco3)sc2=S)cc1	-34	1.2	8	4	8%

By substructure: the compounds so far with a COOH group.
SMILES	YopH inh	RecA splice inh	Arbovirus anti	Mtb bLac sens	Mtb growth	others
Cc1ccc2nc(N3CCN(C(=O)CCC(=O)O)CC3)nc(-c3ccccc3)c2c1	nt	-122	nt	-1	nt
O=C(O)CC1(CC(=O)NCc2ccccn2)CCCCC1	nt	-3.2	nt	-5	2%
COc1ccc(O)c(C2NC(CC(C)C)(C(=O)O)C3C(=O)N(Cc4ccccc4)C(=O)C23)c1 (stereo not drawn)	-28	-5.3	4	-17	-4%

Other records.
SMILES	YopH inh	RecA splice inh	Arbovirus anti	Mtb bLac sens	Mtb growth	others
Cc1ccc(Nc2nc(N)nc(CN3CCCCCC3)n2)c(C)c1	-6	0.7	-2	-9	13%
O=C(O)c1cccc(-n2c(/C=C/c3ccc([N+](=O)[O-])cc3)nc3ccccc3c2=O)c1	nt	1.6	nt	-4	nt
Cc1ccccc1OCCOC(=O)c1nc2nccc(C)n2n1	nt	0.9	14	-1	-11%
Cc1ccccc1/C=c1\s/c(=C\C(=O)C(C)(C)C)[nH]c1=O	2	-1.2	-18	97	53µM*
COc1ccccc1/C=C1/C(=O)ON=C1C	nt	-0.8	nt	-2	nt
Cc1cc(C)n(-c2nc3c(c(=O)[nH]c(=O)n3C)n2CC(C)C)n1	-9	3.0	7	-8	-3%
CCCC1=C(C(=O)OCC)C(c2cc(Cl)cc(OC)c2OCC(=O)OCC)NC(=O)N1 (stereo not drawn)	-36	3.5	7	-4	-1%
Cc1nn(-c2ccc(N3CCOCC3)nn2)c(C)c1CCC(=O)N1CCN(C)CC1	nt	-1.3	nt	1	nt
CCCc1c(C(=O)NNc2cccc(Cl)c2)cnn1-c1ccccc1	nt	32*	nt	93	68%
Nc1ccc(Nc2nc3ccccc3[nH]2)cc1	nt	-3.7	nt	-3	nt
NNC(=O)Cn1cnc2ccccc21	nt	-0.1	1	-5	-2%
CCn1ncc(C(=O)Nc2cc(C)on2)c1C	-22	-3.7	7	-6	-7%
C=CCNc1nc(C(=O)OCC(=O)c2ccccc2)cs1	nt	1.4	nt	2	nt
CC1(C)CC(=O)c2cc(OCC(=O)NCCCN3CCN(c4ccc(F)cc4)CC3)ccc2O1	-12	-4.6	20	?	1%
Cc1ccc(Nc2ncnc3ccccc23)cc1	nt	-1.9	-4	-3	0%
CCOC(=O)c1cnc2c(C(=O)OC)cccc2c1NCc1ccco1	-10	-1.1	18	-1	-16%
C=CCNc1sc(C(=O)C2CC2)c(N)c1C#N	-42	nt	5	2	3%
O=C(NNC(=O)c1ccc2ccccc2c1O)c1cccs1	nt	3.5	nt	11	nt
Cc1ccc(CNS(=O)(=O)c2ccc3c(c2)CCN3C(=O)CCCC(=O)O)cc1	nt	-6.8	0	-4	8%
O=C(NC1CCCC1)c1sc(=S)n2c1[nH]c(=O)c1ccccc12	-32	-98	11	5	-6%
CC(=O)Nc1cccc(-c2nc3ccccc3[nH]2)c1	nt	-2.6	1	0	-3%
CCOc1ccc2nc(COC(=O)c3ccncc3)c(C(=O)c3ccccc3)[n+]([O-])c2c1	nt	-0.6	nt	3	0%
Fc1ccc(N2CCN(c3nnnn3-c3ccccc3)CC2)cc1	nt	-0.9	9	-5	2%
O=C(NCc1ccccc1)c1ccc2c(c1)C(=O)N(CC1CCCO1)C2=O (stereo not drawn)	-5	3.0	5	-23	-3%
CSc1ccc(CN(C)C(=O)c2cc3ccccc3o2)cc1	nt	9.4	nt	-2	nt
Cc1ccc(OCCOCCN2CCN(C)CC2)c([N+](=O)[O-])c1	nt	-0.4	-14	9	3%
Cc1ccc(N2C(=O)CC(Sc3cccs3)C2=O)cc1 (stereo not drawn)	nt	0.3	nt	-6	-4%
CC1CCN(C(=O)Cn2cnc3c2c(=O)n(C)c(=O)n3C)c2ccccc2S1 (stereo not drawn)	nt	0.3	nt	2	nt
COc1ccc(S(=O)(=O)Cc2ccc(C(=O)N3CCN(c4cc(Cl)ccc4C)CC3)o2)cc1	-44	12	5	7	0%	Arbovirus anti repeat=-12
O=C(NCc1cccs1)c1ccccc1	2	1.8	-2	1	5%
CCOC(=O)n1c(=O)n(Cc2ccc(OC)cc2)c2ccccc21	nt	-0.2	nt	-2	nt
O=C(COC(=O)/C=C/C(=O)OCC(=O)Nc1ccccc1F)Nc1ccccc1F	nt	-0.1	nt	-5	-22%
Brc1ccccc1C1=Nn2c(nnc2-c2ccco2)SC1	nt	0.1	nt	-3	-1%
O=C1N[C@@H](Cc2ccccc2)C(=O)N1CCN1CCOCC1	4	-1.6	2	-9	1%
CCOC(=O)Cn1c(=NC(=O)c2cccs2)sc2cc(C(=O)OC)ccc21	-9	1.7	8	-1	-1%
